Calb FLC = C. albicans growth modulation with fluconazole; C. albicans CaCi-2 (fluconazole-resistant clinical isolate) + fluconazole, Alamar Blue growth, 48 h; growth inhibition, % (test concentration not listed); 0.57% of 300,000 active; AID 1979;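 active means most replicates above 75%; inconclusive means exactly half above 75%; inactive means most below 75%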;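 further: all wells also contain fluconazole at 8 µg/ml as a sub-toxic cotreatment; 0% = median of DMSO wells and 100% = median of geldanamycin control wells; wells of about 8 µL received 7.5 nL stock; the first replicate is given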
RanGTP-Imp inh = inhibitors of RanGTP-importin-beta interaction, primary screen, biochemical, FRET, CFP-Ran, YFP-importin-beta, homogeneous | 1.1% of 300,000 active | cell-free CFP-Ran/YFP-importin-beta FRET ratio | inhibition, % (test concentration not listed) | AID 2216;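 active means most replicates above 15%; inconclusive means exactly half above 15%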;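 further: 0% = DMSO wells and 100% = Ran loaded with GDP instead of GTP; wells of about 40 µL received 100 nL stock; the first replicate is given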
Beta2AR agonist = agonists of human beta-2 adrenergic receptor inducing internalization. 0.43% of 340,000 active. response, % (test concentration not listed). Am2.2-beta2AR cells, FAP receptor internalization, flow cytometry; reference of the scale not given here;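 active means response above a set limit, near 3 SD of response in nonfluorescent compounds, cut at about 42% in these data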;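 further: stock transfer was 100 nL into about 11 µL; a reference agonist was the positive control; negative values mostly stem from fluorescent compounds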
HNF4A DNA FP = change in binding of human HNF4 alpha to DNA. P41235. HNF4a-FITC DNA binding, fluorescence polarization, 1 h. activity change, % at 10 µM. 0.3% of 360,000 active; in the data active means activity change above about 30%, passing the limit was not always enough;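 further: controls were the assay level and a saturating level of protein; the project sought stronger binding though the title names inhibitors; some compounds called inactive have numbers as strong as hits; positive values seem to mean higher polarization but the record does not say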
LANA-H2A inh = blocks KSHV LANA binding to histone H2A/H2B. cell-free LANA-H2A/H2B peptide, fluorescence polarization. Q9QR71. AID 2629. 0.6% of 320,000 active. inhibition, % (test concentration not listed); in the data active means inhibition mostly above about 10%, no sharp cut-off; inactive means mostly below about 6.7%;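 further: stock transfer was 7.5 nL into about 10 µL; 0% = median of vehicle wells and 100% = median of positive control wells; one replicate is shown; the record names a cut of 25% in any replicate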
ALR H2O2 inh = blocks human ALR sulfhydryl oxidase activity. purified ALR, DTT oxidation, H2O2 HRP-luminol luminescence. inhibition, % (no concentration beside the values). 3.8% of 290,000 active. AID 485317;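 active means mean and each replicate at 75% or more; inconclusive means only one of the two met; inactive means neither met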;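 further: stock transfer was 7.5 nL into about 7.5 µL; 0% = neutral wells and 100% = wells with inactivated enzyme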
Vif TR-FRET = HIV-1 Vif–A3G interaction blockers – biochemical, TR-FRET, GST-Vif 1-94, biotin-A3G peptide, dose response retest, primary screen (AID 1117319); TR-FRET GST-Vif / biotin-A3G peptide binding; higher % means a stronger effect; test concentration not given here; strong numbers were not always called active; inhibition, %, or IC50 in µM where a hit was titrated; 0.57% of 260,000 active;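 active means above the screen mean plus three standard deviations and confirmed in dose response; inconclusive means results disagree or hit not tested in dose response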;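 further: Vif residues 1-94 fused to GST binding biotinylated APOBEC3G peptide 110-148; 0% = full assay without inhibitor and 100% = GST in place of GST-Vif; retest series ran down from 100 µM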
Numbers without * were called inactive; ? = inconclusive; . = no result given.

SMILES	Calb FLC	RanGTP-Imp inh	Beta2AR agonist	HNF4A DNA FP	LANA-H2A inh	ALR H2O2 inh	Vif TR-FRET
O=C(Nc1ccc(-n2cccn2)cc1)C1CCCCN1Cc1cccc2cccnc12 (stereo not given)	-3	0.5	-17	1.6	4.3	0	.
Cc1ccc(CN2C(=O)CCC2C(=O)N2CCN(c3ccc(F)cc3)CC2)cc1 (stereo not given)	4	-2.6	-3	-0.1	0.6	91*	62%
CCOC(=O)c1cc([N+](=O)[O-])sc1N	12	-3.7	-1	3.3	-1.0	-13	8%
C[C@@H](NC(=O)OC(C)(C)C)C(=O)NCC1CCC(C(=O)N[C@@H](Cc2ccccc2)C(=O)O)CC1 (stereo not given in full)	.	-0.2	-2	1.7	-0.2	-5	-8%
O=C(Nc1ccc(Cn2ccnc2)cc1)c1cccc(C(F)(F)F)c1	-3	1.5	-6	-0.7	0.5	-8	.
COc1ccccc1N1CC(O)=C(c2nc3ccccc3c(=O)[nH]2)C1=N	-5	2.4	14	0.6	0.8	-13	-4%
Cc1cc(-c2nnc(SCC(=O)Nc3ccccc3C)n2N)n[nH]1	-4	-0.4	9	1.9	-29	-3	.
CCCCOC(=O)Nc1ccc(S(=O)(=O)Nc2onc(C)c2C)cc1	-3	1.1	2	2.5	4.5	6	2%
O=C(N/N=C/c1ccc(OC(=O)c2ccccc2Cl)cc1)c1cc(O)cc(O)c1	6	0.3	8	-45	-2.5	14	.
CC(=O)Nc1nc2ccccc2n1Cc1ccc(Cl)cc1	0	5.3	0	-2.3	-4.1	.	-12%
CCN(CC)CCNC(=O)c1cc2c(-c3ccc(Cl)cc3)nn(C)c2s1	-3	-0.8	9	1.7	.	.	0%
O=C(CN(c1ccc2c(c1)OCCO2)S(=O)(=O)c1ccccc1)NCC1CCCO1 (stereo not given)	-8	3.8	-13	0.9	-0.3	-2	25%
CNC(=O)N1c2ccccc2C=Cc2ccccc21	-15	1.4	-4	0.6	8.1	.	.
CCCCCOC(=O)C1=C(C)Nc2ncnn2C1c1cccs1 (stereo not given)	0	?	32	-1.4	-0.2	-2	-1%
CN(C)C(=O)c1c(-c2ccccc2)oc2ccc(O)cc12	-1	-4.6	4	1.6	-3.3	98*	3%
O=C(CN1C(=O)c2ccccc2S1(=O)=O)N1CCN(c2cccc(Cl)c2)CC1	-3	0.1	0	-1.2	4.8	.	2%
COC(=O)c1sc2ncn(N)c(=O)c2c1C	1	5.5	.	.	0.8	-5	5%
COc1ccc(C2NCCc3c2[nH]c2ccccc32)cc1COc1ccc(F)cc1 (stereo not given)	3	22*	15	3.3	2.9	-4	.
CCn1ccc(C(=O)Nc2ccc(N(C)C(C)=O)cc2)n1	0	1.9	1	-0.7	1.6	0	3%
COc1cc(C#N)ccc1OC(=O)Cc1cc(OC)c(OC)c(OC)c1	-3	-2.3	3	-0.2	-6.6	5	.
COc1ccc2c(c1)/C(=N/OC(=O)c1cccs1)CCC2	26	0.7	-9	1.9	2.6	-7	.
Cc1ccc(N(CC(=O)N2CCc3ccccc3C2)S(C)(=O)=O)cc1	1	-0.2	2	-1.3	-2.9	-5	3%
C[C@H](NC(=O)c1ccco1)C(=O)Nc1ccc2c(c1)OCO2	-1	-2.8	-2	3.7	3.1	-19	.
O=C(CSc1ncnc2scc(-c3ccccc3)c12)Nc1ccc(C(=O)O)cc1	1	-1.7	23	0.9	4.2	50	.
NC(=O)c1ccccc1NC(=O)CCn1c(=S)oc2ccccc21	-7	-3.3	-6	0.4	0.5	.	-7%
CC(C)Sc1nnc(SCC(=O)NCCCN2CCCC2=O)s1	.	.	-15	-3.3	-4.2	39	-11%
CCc1ccc2nc(N(CCN(C)C)C(=O)/C=C/c3cccs3)sc2c1	4	-8.7	-1	0.8	5.7	8	?
CC1CC(=O)C2=C(C1)Nc1ccccc1N(C(=O)COc1ccccc1)C2c1ccco1 (stereo not given)	-2	3.1	-1	-2.3	2.3	-5	3%
O=C(CCC1CCCN(C(=O)c2ccco2)C1)NCc1ccccc1F (stereo not given)	58	-1.8	-2	-4.1	0.0	-2	-6%
Nc1ccc(CC2SC(=O)NC2=O)cc1 (stereo not given)	-2	8.5	-1	-6.2	-3.6	9	3%
CC(NC(=O)C(NC(=O)C(Cc1c[nH]c2ccccc12)NC(=O)OC(C)(C)C)C(C)C)C(N)=O (stereo not given)	8	-0.1	13	3.2	4.5	-18	1%
COC(=O)c1ccc(CSc2nc3ccccc3c(=O)n2C)o1	7	0.1	11	-0.2	-0.2	?	.
O=C(O)c1cc(NC(=O)c2ccccc2[N+](=O)[O-])ccc1O	36	-1.9	-5	-1.1	-1.7	-4	9%
CCOC(=O)c1ccc(NC(=O)CCc2nc(-c3ccccc3)no2)cc1	10	4.1	-17	-3.5	4.9	-7	-3%
c1ccc(-c2cc(-c3nnc4sc(-c5ccccn5)nn34)[nH]n2)cc1	1	0.4	-2	-1.3	0.4	0	9%
COc1cccc(NC(=O)Nc2c(C)n(C)n(-c3ccccc3)c2=O)c1	-9	115*	5	-0.1	0.7	7	-4%

Pulled one by one from the list above, three records:
SMILES	Calb FLC	RanGTP-Imp inh	Beta2AR agonist	HNF4A DNA FP	LANA-H2A inh	ALR H2O2 inh	Vif TR-FRET
CN(C)C(=O)c1c(-c2ccccc2)oc2ccc(O)cc12	-1	-4.6	4	1.6	-3.3	98*	3%
O=C(CCC1CCCN(C(=O)c2ccco2)C1)NCc1ccccc1F (stereo not given)	58	-1.8	-2	-4.1	0.0	-2	-6%
CC(=O)Nc1nc2ccccc2n1Cc1ccc(Cl)cc1	0	5.3	0	-2.3	-4.1	.	-12%

Some of these compounds in order of formula weight, lowest first.
SMILES	Calb FLC	RanGTP-Imp inh	Beta2AR agonist	HNF4A DNA FP	LANA-H2A inh	ALR H2O2 inh	Vif TR-FRET
CCn1ccc(C(=O)Nc2ccc(N(C)C(C)=O)cc2)n1	0	1.9	1	-0.7	1.6	0	3%
CCCCCOC(=O)C1=C(C)Nc2ncnn2C1c1cccs1 (stereo not given)	0	?	32	-1.4	-0.2	-2	-1%
NC(=O)c1ccccc1NC(=O)CCn1c(=S)oc2ccccc21	-7	-3.3	-6	0.4	0.5	.	-7%

Assay outcomes from PubChem.
